VDR inh: Inhibitors of the vitamin D receptor (VDR): qHTS | Vitamin D3 receptor (Homo sapiens), P11473 | VDR-SRC2-3 peptide fluorescence polarization, 2 h | Potency, µM, for inactives: max response, negative = inhibition, usual class: inhibitors | 0.93% of 400,000 active | AID 504847, 2011; active = well fitted inhibition curve with a large enough effect; inconclusive = small, poorly fitted or top-dose-only effect, or another doubt; inactive = no such curve, though single readings can be large or run the other way; also: series mostly up to about 120 µM
Target sequence (P11473 whole entry, looked up): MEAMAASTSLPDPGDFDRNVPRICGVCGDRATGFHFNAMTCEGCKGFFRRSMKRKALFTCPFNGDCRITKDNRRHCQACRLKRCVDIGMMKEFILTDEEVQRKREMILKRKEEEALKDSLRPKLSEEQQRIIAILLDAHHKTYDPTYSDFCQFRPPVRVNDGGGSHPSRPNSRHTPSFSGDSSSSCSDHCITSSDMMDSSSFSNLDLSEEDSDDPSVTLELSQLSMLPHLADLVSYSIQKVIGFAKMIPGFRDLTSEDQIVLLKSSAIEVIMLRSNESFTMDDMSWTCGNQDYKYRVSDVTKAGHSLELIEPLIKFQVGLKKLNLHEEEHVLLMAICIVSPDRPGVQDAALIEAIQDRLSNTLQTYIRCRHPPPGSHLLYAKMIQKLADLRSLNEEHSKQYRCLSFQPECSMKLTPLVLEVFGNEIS
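Signal is fluorescence polarization, reporting how far test compounds block the interaction of VDR with the SRC2-3 coregulator peptide after a 2 h room-temperature incubation.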
An asterisk follows results filed as active; ? = inconclusive; & = joins results of further samples; [ ] = remark or other dose. % is scaled to controls: 0 for no effect and ±100 for the full control effect; potency is read from the fitted curve at half-maximal effect. Some of the compounds tested; the hit share may differ from the screen's.

Start of the listing, in advance (five entries):
SMILES	VDR inh
COc1cccc(CNC(=O)CN(c2ccc(C(C)C)cc2)S(=O)(=O)c2c(C)n[nH]c2C)c1	-8%
CCOc1ccc(Cn2c3ccc(OC)cc3c3nc4ccccc4nc32)cc1OC	-20%
Cc1cccc(NC(=S)NNC(=O)c2sccc2C)c1	-8%
CC(=O)Nc1ccc(OC(F)(F)C(F)C(F)(F)F)c(NC(C)=O)c1 (stereo unspecified)	6%
Cc1nnc(SCC(=O)NNC(=O)c2ccc(Cl)cc2)n1CC1CCCO1 (stereo unspecified)	7%

All compounds of this part, repeating the preview:
SMILES	VDR inh
COc1cccc(CNC(=O)CN(c2ccc(C(C)C)cc2)S(=O)(=O)c2c(C)n[nH]c2C)c1	-8%
CCOc1ccc(Cn2c3ccc(OC)cc3c3nc4ccccc4nc32)cc1OC	-20%
Cc1cccc(NC(=S)NNC(=O)c2sccc2C)c1	-8%
CC(=O)Nc1ccc(OC(F)(F)C(F)C(F)(F)F)c(NC(C)=O)c1 (stereo unspecified)	6%
Cc1nnc(SCC(=O)NNC(=O)c2ccc(Cl)cc2)n1CC1CCCO1 (stereo unspecified)	7%
Cc1cc(C)cc(NC(=O)CN2C(=O)CSc3ccc(S(=O)(=O)N(C)C)cc32)c1	0%
Cc1ccc(Cn2c3ccccc3c3cnn(CC(=O)N4CCCCCC4)c(=O)c32)cc1	-11%
COc1ccc(CCNC(=O)C(=O)Nc2ccccc2F)cc1	8%
Cc1cc(C)nc(NC2=NCC(=O)N2c2ccc(Cl)cc2)n1	1%
COc1cccc2cc(C(=O)C3=C(O)C(=O)N(CCN(C)C)C3c3ccc(Cl)cc3)oc12 (stereo unspecified)	-10%
COc1ccc2c(/C=C/c3cc[n+](C)cc3)c[nH]c2c1	-13%
CCCC(=O)N1CCN(c2ccc(NC(=O)c3cc4ccccc4o3)cc2)CC1	2%
CSc1ccc(C(=S)N2CCN(CCO)CC2)cc1	-17%
NNC(=O)COc1cccc(Oc2ccccc2)c1	12%
O=C(CC1N=C2c3ccccc3N=C(SCC(=O)Nc3ccc(F)cc3)N2C1=O)NCc1cccs1 (stereo unspecified)	-6%
Cc1cc(C)c(C(=O)/C=C/c2cccs2)c(=O)[nH]1	-11%
O=C(c1ccco1)N1CCN(Cc2cn[nH]c2-c2cccc3ccccc23)CC1	5%
CCOC(=O)c1c(NC(=O)c2ccnn2C)sc(C)c1C	-8%
CN1C2C=C3C(C#N)=C(N)C(C#N)(C#N)[C@@H](c4cccs4)C3C1CC2 (stereo partly specified)	1%
O=C(c1ccc(Cl)cc1Cl)N1CCOCC1	2%
COc1ccc(CN(C)CC(=O)Nc2cc3oc4ccccc4c3cc2OC)c(OC)c1	-7%
Cc1ccc(NC(=O)c2ccc(COc3ccccc3[N+](=O)[O-])o2)nc1	7%
O=C1c2ccccc2C(=O)c2c1cccc2N1CCN(C/C=C/c2ccccc2)CC1	5%
CCn1ccnc1CN1CCCC(C(=O)c2ccc3cc(OC)ccc3c2)C1 (stereo unspecified)	7%
O=C(CSc1nnc(C2CCCCC2)o1)N1CCCCC1	5%

Additional structures follow.
SMILES	VDR inh
CC(C)Oc1cccc(C(=O)NC(=S)Nc2ccc(Cl)c(C(=O)O)c2)c1	5%
COc1cc(CNc2nc3ccccc3[nH]2)cc(OC)c1OC	-2%
NC(=O)c1c(NC(=O)c2ccc(S(=O)(=O)N3CCOCC3)cc2)sc2c1CCCCC2	-13%
CN(C)c1ncc2nc(-c3ccc(F)cc3)c(=O)n(C3CC3)c2n1	-19%
CCCC(=O)N1CCN(c2ccc(NC(=O)c3cc4ccccc4o3)cc2Cl)CC1	15%
Fc1ccccc1-c1nc(-c2cnccc2C(F)(F)F)no1	-1%
CCOc1ccc(-c2nnc(-c3ccccc3)o2)cc1	5%
CC(=O)c1cccc(NC(=O)CN2C(=O)COc3ccc(S(=O)(=O)N4CCOCC4)cc32)c1	-13%
CCOc1ccc(S(=O)(=O)Nc2cccc(N(C)S(C)(=O)=O)c2)cc1	15%
COc1ccc(Nc2cc(C)nc(N)n2)cc1	-14%
Cc1ccc(C(c2cc(Br)ccc2O)N2CCSCC2)cc1 (stereo unspecified)	-5%
CCOC(=O)C1CCN(S(=O)(=O)NC[C@H]2O[C@@H](n3cnc4c(N)ncnc43)[C@H](O)[C@@H]2O)C1 (stereo partly specified)	-13%
CN(c1ccccc1)S(=O)(=O)c1cccc(NC(=O)CCNC(=O)c2ccc([N+](=O)[O-])cc2)c1	-6%
Cc1ccc(S(=O)(=O)N2CCN(c3ccc([N+](=O)[O-])cn3)CC2)cc1	-21%
CCCOc1cccc(-c2nnc(NC(=O)c3ccco3)s2)c1	18%
COCCOC(=O)C1=C(C)N=C2SCCC(=O)N2C1c1ccc(C(=O)OC)cc1 (stereo unspecified)	-8%
O=C(Nc1ccc2c(c1)nc1n2CCN(Cc2ccccc2)C1)NC1CCCCC1	-7%
O=C(C=Cc1ccccc1Cl)c1ccccc1	35µM*
Cc1ccc(C(=O)N2CCN(Cc3ccc4c(c3)OCO4)CC2)c(Cl)c1	-17%
C/C=C1\COC(C(=O)NCc2cccc(OC)c2OC)(C(F)(F)F)C=C1C=C1CCCCC1 (stereo unspecified)	-3%&-16%
O=C(Cc1cccc2ccccc12)NCC(=O)N1CCN(Cc2cccc(C(F)(F)F)c2)CC1	-5%
Cn1c(CN2CCOCC2)nc2cc(NC(=O)COc3ccc([N+](=O)[O-])cc3)ccc21	-3%
CC(C)c1onc(C(=O)NC2CCCC2)c1[N+](=O)[O-]	-11%
COc1ccc(CC(=O)Oc2ccccc2[N+](=O)[O-])cc1	-15%
CCN(CC(=O)Nc1c(F)cccc1F)C(=O)c1cnc(C)cn1	5%

Some of the entries above in a different format:
| Compound | VDR inh |
| --- | --- |
| CN(C)c1ncc2nc(-c3ccc(F)cc3)c(=O)n(C3CC3)c2n1 | -19% |
| CC(C)c1onc(C(=O)NC2CCCC2)c1[N+](=O)[O-] | -11% |

Next structures.
SMILES	VDR inh
O=[N+]([O-])c1cccc(S(=O)(=O)NCc2ccncc2)c1	39%[activator]
O=C(O)CCC(=O)N1CCc2cc(S(=O)(=O)Nc3ccc4c(c3)OCCO4)ccc21	-14%
CC(C)CCn1c(Oc2ccccc2Cl)nc2c1c(=O)n(C)c(=O)n2C	-29%
O=C(Nc1ccc2c(c1)N(S(=O)(=O)c1cccs1)CCC2)c1c(F)cccc1Cl	5%
CC1=Nc2nc(N3CCCCCC3)c(C#N)c3c4c(nc(c23)N1)N(c1ccc2ccccc2c1)C(=O)C4	0%
Cc1cccc(NC(=O)C2CCCN(S(=O)(=O)c3c(C)nn(C)c3C)C2)n1 (stereo unspecified)	12%
O=C(N[C@H]1/C=C\[C@@H](O)CCCC1)OCc1ccccc1	-8%
N#Cc1c(Cl)cccc1N1CCC(C(N)=O)CC1	3%
C[C@@H]1CC=C[C@H]2[C@H]1C(=O)N(Cc1ccccc1)[C@H]2c1ccc(Br)cc1F	-12%
CC(C)C[C@@H](CC(=O)N[C@H](CC(=O)N[C@@H]1CCNC[C@H]1C(=O)N[C@H](CC(=O)N[C@@H](CCC(=O)O)CC(=O)O)CC(C)C)C(C)C)NC(=O)[C@@H]1CCCC[C@H]1N	6%
O=C(Cc1ccc([N+](=O)[O-])cc1)N/N=C/c1ccco1	-8%
CCc1ccccc1NC(=O)c1ccc(F)c(S(=O)(=O)NC2CCCCCC2)c1	6%
Cc1ccc2c(c1)c(N=NC(N)=O)c(O)n2C	-26%
O=C(NCc1ccco1)c1sc2cccc(F)c2c1Cl	-4%
CC1(C)NC(=O)N(CC(O)Cn2nnc3ccccc32)C1=O (stereo unspecified)	6%
Cc1cccn2cc(-c3ccc(S(=O)(=O)N4CCOCC4)cc3)nc12	-7%
Cc1ccc(-c2n[nH]c(=S)n2/N=C\c2ccco2)cc1	-16%
CCC(C)Nc1nc2c(c(=O)[nH]c(=O)n2C)n1CCC(C)C (stereo unspecified)	-2%
O=C(COC(=O)c1c[nH]c2ccccc12)Nc1ccc(F)cc1	?
COCCNc1nc2ccccc2n1CC(=O)c1ccc(OC)c(OC)c1	6%
COc1ccccc1C(=O)NCCCNC(=O)c1cccnc1	-7%
COc1ccc(CCNC(=O)CSc2nc(N)c(C#N)c(-c3cccs3)c2C#N)cc1OC	5%
Cc1cccc(C(=O)Nc2cccc(C(=O)N/N=C/c3cccc(C)n3)c2)c1	5%
CCc1nc2ccc(C(=O)O)cc2nc1CC	-27%
Cc1ccc(C(=O)Nc2cccc(N(C)S(C)(=O)=O)c2)cc1S(=O)(=O)Nc1ccccc1	2%

(further entries)
SMILES	VDR inh
Cc1ccc(C)c(S(=O)(=O)N2CCCC2CNC(=O)C(=O)NCCc2ccco2)c1 (stereo unspecified)	3%
Cc1ccccc1OCCCC(=O)Nc1nccs1	-8%
c1ccc(-c2csc3ncnc(N4CCOCC4)c23)cc1	-2%
N#Cc1c(NC(=O)C2CC(Cl)=CCC2C(=O)O)sc2c1CCCC2 (stereo unspecified)	34%[activator]
CCCCCCNC(=O)C(C#N)c1nc2ccccc2nc1N1CCOCC1 (stereo unspecified)	13%
CN(C)CCOC(=O)CCc1ccccc1	4%
Cc1cccc(Nc2c([N+](=O)[O-])ccc3nonc23)c1C	4%
N/C(=N\S(=O)(=O)c1cc(C(F)(F)F)cc(C(F)(F)F)c1)c1ccncc1	-19%
Cc1c(NC(=S)NC(=O)CSc2ccc(Cl)cc2)cccc1C(=O)O	-25%
COc1ccc2c(c1)cc(C)c1nnc(SCC(=O)N(C)c3nc(-c4ccccc4)cs3)n12	-9%
O=C(NCc1cccnc1)[C@@H]1CC=C[C@@H]2CCN(Cc3ccccc3)C(=O)[C@@H]21	-1%
c1ccc(C2CC(c3ccccc3)n3ncnc3N2)cc1 (stereo unspecified)	-15%
CC(C)n1c(SCC(=O)Nc2nncs2)nnc1C1CC1	-5%
CCCCNC(=O)CN1C(=O)c2cccc(N)c2C1=O	-2%
O=C(O)CCn1cc(/C=C2\NC(=S)N(c3ccccc3)C2=O)c(-c2ccc(Br)cc2)n1	-4%
COc1cccc(-c2noc(C3CC(=O)N(c4ccc(F)cc4)C3)n2)c1OC (stereo unspecified)	9%
COc1ccc2c(C)nc(N/C(N)=N/S(=O)(=O)c3ccc(C)cc3)nc2c1	-8%
COc1cc(-c2nc(-c3ccc4c(c3)[nH]c(=O)n4C)no2)cc(OC)c1OC	-4%
O=C(NCCCNc1ccc([N+](=O)[O-])cc1)C(F)(F)F	14%
CCc1nnc(SC(CC)C(=O)Nc2cccc(OC)c2)c2cc3oc(C)cc3n12 (stereo unspecified)	4%
CC(=O)OC1CCC2(C)C3CCC4(C)C(C(C)=O)CCC4C3CC3OC32C1 (stereo unspecified)	-8%
Cc1onc(-c2c(F)cccc2Cl)c1C(=O)NC(=S)NC1CCS(=O)(=O)C1 (stereo unspecified)	-3%
CC(Oc1ccc(F)cc1)C(=O)Nc1nc(-c2ccc(F)cc2)ns1 (stereo unspecified)	6%
CCCn1c(N)c(N2CCCCC2)c(=O)n(CC(=O)Nc2cccc(S(=O)(=O)N(C)C)c2)c1=O	4%
O=C(N/N=C/c1ccc2c(c1)OCO2)c1ccn(Cc2ccc(Cl)cc2)n1	?

Later entries.
SMILES	VDR inh
c1ccc2c(c1)C(=Nn1cnnc1)c1ccccc1-2	-2%
O=[N+]([O-])c1ccc(N/N=C2/CCCCC2c2ccccn2)cc1 (stereo unspecified)	6%
O=c1[nH]n(CCO)c(=O)c2cccnc12	4%
CNC(=O)C(C)N1c2cccc3cccc(c23)S1(=O)=O (stereo unspecified)	-7%
COc1ccc(N2CC(NC(=O)c3cccc4ccccc34)CC2=O)cc1OC (stereo unspecified)	-15%
Cc1ccc(CNC(=O)c2cc(S(=O)(=O)N3CCCC3)cn2C)cc1	-5%
COc1cc(NC(=O)c2cc(Cl)ccc2Cl)ccc1NC(=O)c1cc2ccccc2o1	-15%
CCCCN1C(=O)C(=O)N(CC(=O)Nc2cc(S(=O)(=O)N(C)C)ccc2C)C1=O	0%
O=C(c1cc2ccccc2o1)N1CCN(S(=O)(=O)c2ccccc2)CC1	9%
Cc1cccc(C(=O)n2c(=S)nc3ccccn32)c1	79µM*
O=C1CCN(CCc2ccccc2)CCN1[C@H](CSc1ccc(Br)cc1)Cc1ccccc1	-8%
CCOC(=O)N1CCC(NC(=O)C2CCCN(S(=O)(=O)c3cccc4nsnc34)C2)CC1 (stereo unspecified)	-7%
O=c1c2ccccc2ncn1CCOCCOc1ccc([N+](=O)[O-])cc1	5%
CC1CCC(NC(=O)C2(C)Cc3ccccc3C(=O)N2Cc2ccc(Cl)cc2)CC1 (stereo unspecified)	-3%
O=C1c2[nH]nc(-c3ccccc3O)c2C(c2ccccc2F)N1Cc1ccco1 (stereo unspecified)	11%
Cc1ccc(C)c(NC(c2ccccc2)c2nnc(-c3ccccc3F)o2)c1 (stereo unspecified)	14%
O=[N+]([O-])c1ccc(N2CCCCCC2)c([N+](=O)[O-])c1	-19%
CC(=O)c1csc(-c2cccc(-c3nc4ccc(Cl)cn4c3NC3CCCCC3)c2)c1	-24%
Cc1nnc(SCc2ccc(CSc3nnc(C)c(=O)[nH]3)cc2)[nH]c1=O	2%
CNc1ncncc1-c1ccccc1C	71µM*
CCNc1nc(NCc2ccccc2)nc(Oc2ccc(=O)[nH]n2)n1	-12%
O=[N+]([O-])c1[nH]cnc1/C=C/c1ccccc1	-14%
COc1ccc(-c2cn3cccnc3n2)cc1	3%
CCOC(=O)c1ccccc1NC(=O)c1cc2c(s1)-c1c(C)cccc1OC2	-2%

Rewritten field by field: entries from further up.
> Cc1ccc(-c2n[nH]c(=S)n2/N=C\c2ccco2)cc1
  VDR inh: -16%

> CCC(C)Nc1nc2c(c(=O)[nH]c(=O)n2C)n1CCC(C)C (stereo unspecified)
  VDR inh: -2%

> O=C(COC(=O)c1c[nH]c2ccccc12)Nc1ccc(F)cc1
  VDR inh: ?

> COCCNc1nc2ccccc2n1CC(=O)c1ccc(OC)c(OC)c1
  VDR inh: 6%
